Bioassay records: PubChem, National Center for Advancing Translational Sciences (NCATS)
HPGD block: HPGD (human) dehydrogenase inhibition | P15428 | purified HPGD, NADH fluorescence kinetic, PGE2 substrate | Potency, µM, inactives show top-dose activity change, negative = inhibition, actives largely listed as inhibitors | actives 4.3% (n = 150,000) | AID 894; active = well fitted inhibition curve with a large enough effect (not every such curve was filed as active); inconclusive = small, poorly fitted or top-dose-only effect, or another doubt; inactive = no such curve, though single readings can be large or run the other way;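 note: top concentration of the series not given in the record; plate controls included wells without enzyme; inactives centre near -10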
Target sequence (P15428 whole entry, looked up): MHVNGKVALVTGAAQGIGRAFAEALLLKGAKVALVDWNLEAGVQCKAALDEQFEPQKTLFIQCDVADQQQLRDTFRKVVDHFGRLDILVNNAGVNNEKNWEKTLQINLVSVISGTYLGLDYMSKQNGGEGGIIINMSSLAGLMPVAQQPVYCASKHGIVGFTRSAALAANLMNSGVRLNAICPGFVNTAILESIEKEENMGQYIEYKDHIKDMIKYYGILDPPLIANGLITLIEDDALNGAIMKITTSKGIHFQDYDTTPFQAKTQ
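20 nM HPGD preincubated 15 min at room temperature with compound in 50 mM Tris-HCl pH 8, 0.01% Tween 20. Started with 1 mM NAD+ and 30 uM prostaglandin E2; NADH fluorescence (360/450 nm) read 5 times over 30-s intervals, last minus first.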
* = called active by the depositor; ? = inconclusive; & = joins results of further samples. % is set by controls: 0 for no effect and ±100 for the full control effect; potency is the fitted concentration of half-maximal effect.

SMILES | HPGD block
COc1ccc(S(=O)(=O)N2CCOC2CNC(=O)C(=O)NCCc2ccc(OC)c(OC)c2)cc1 (stereo unspecified) | -5%
O=c1oc2ccccc2cc1C1=Nn2c(nnc2-c2cccnc2)SC1 | -13%
Cc1nnc(SCC(=O)N2CC(=O)Nc3ccccc32)n1Cc1ccccc1 | -12%
Cc1ccc(S(=O)(=O)NCc2ccc3c(c2)cc(C)n3C)cc1 | -7%
CC(C)NS(=O)(=O)c1ccc(CCC(=O)NCc2ccc3c(c2)OCO3)cc1 | -6%
O=C(NCCNc1ccc([N+](=O)[O-])cc1C(F)(F)F)c1cccc(F)c1 | -7%
COc1ccc(CN(C(=O)c2ccccc2OC)C2CCS(=O)(=O)C2)cc1 (stereo unspecified) | -2%
O=C(Nc1cccn(Cc2c(Cl)cccc2Cl)c1=O)c1c(Cl)cccc1Cl | -16%
CCn1c(SCC(=O)c2ccc(Cl)s2)nnc1-c1cccs1 | ?
CCCC(=O)Nc1ccc(N2CCCCC2)cc1 | -17%
O=C(CSc1n[nH]c(=O)[nH]c1=O)N/N=C/c1ccccc1 | -18%
COc1ccc(Nc2nc(-c3cccc([N+](=O)[O-])c3)nc3ccccc23)c(OC)c1 | -8%
N[C@@H](CSC(=O)c1ccccc1)C(=O)O | -3%
O=C1NC(=O)C2(COC3(CCCC3)OC2)S1 | -4%
COc1cc(OC)cc(C(=O)N/N=C/c2ccc(OC)c(COc3ccc4ccccc4c3)c2)c1 | ?
COc1ccccc1CN1CC[C@@]2(CCCN(C(=O)c3ccco3)C2)C1 | -7%
Cc1onc(-c2ccccc2)c1C(=O)Nc1ccc2c(c1)OCCO2 | -6%
CCOC(=O)c1ccc2c(c1)nc(-c1ccc(F)cc1)c1nccn12 | ?
N#Cc1c2c(c(-c3ccccc3)[nH]c1=O)CCCC2 | -22%
Cc1cccc(-n2nc(C(=O)Nc3ccccc3)n3c(=O)cc(-c4ccccc4)nc23)c1 | -8%
O=C(NC1CC2CCCC(C1)N2S(=O)(=O)c1ccccc1)c1ccccc1 (stereo unspecified) | -3%
COc1cccc2c1C(=O)c1c(O)c3c(c(O)c1C2=O)C[C@@](O)(C(=O)CO)C[C@@H]3O[C@H]1C[C@H](N)[C@H](O)[C@H](C)O1 | -14%&-7%
O=C(CSc1nnc(-c2ccncc2)o1)NCc1ccccc1 | -12%
FC(F)Oc1ccc(/C=N/NC(=S)Nc2cc(C(F)(F)F)ccc2Cl)cc1 | -5%

Three entries from above, as labelled records.
COc1ccc(S(=O)(=O)N2CCOC2CNC(=O)C(=O)NCCc2ccc(OC)c(OC)c2)cc1 (stereo unspecified)
  HPGD block: -5%
O=c1oc2ccccc2cc1C1=Nn2c(nnc2-c2cccnc2)SC1
  HPGD block: -13%
Cc1nnc(SCC(=O)N2CC(=O)Nc3ccccc32)n1Cc1ccccc1
  HPGD block: -12%

The list goes on:
SMILES | HPGD block
Cc1ccccc1C(O)c1cccnc1 (stereo unspecified) | -14%
Cc1cc(NC(=O)CSc2nccn2-c2ccc(Cl)cc2)no1 | -6%
N#Cc1c[nH]n2c(=O)c3c(nc12)CCCC3 | -19%
CCCC(C)n1[nH]c(=O)cc1N (stereo unspecified) | -7%
Cc1cccc(C)c1OCC(=O)Nn1c(COc2ccccc2)nc2ccccc2c1=O | -2%
FC(F)(F)c1ccc(CN2C[C@@H]3C(c4ccc(C(F)(F)F)cc4)C4(c5cccnc5)CC3(C4)[C@H]2c2ccccc2)cc1 (stereo partly specified) | -2%
CCOC(=O)c1sc(NC(=O)CCSC)nc1C | -11%
O=C(/C=C/c1ccc(Cl)cc1Cl)N(Cc1ccc(Cl)cc1)C1CCS(=O)(=O)C1 (stereo unspecified) | -8%
O=C(CCN1C(=O)/C(=C/c2cccs2)SC1=S)NC1=NCCS1 | -13%
O=C1SCC(c2ccc(Cl)cc2Cl)=NN1Cc1nnc(-c2ccccc2)o1 | 32µM*
Cc1ccc(S(=O)(=O)NCC(=O)N(CC(=O)NCC2CCCO2)Cc2ccccc2)cc1 (stereo unspecified) | -1%
COC(=O)C1=C(C)N(CC2CC2)C(=O)N[C@H]1c1ccc(Br)cc1 | -1%&-14%
Cc1ccc2nc(Nc3ncc4c(n3)CCCC4=O)nc(C)c2c1 | -10%
COc1ccc(CNC(=O)c2cnc3cc(C)ccn3c2=O)cc1 | ?
O=C1c2ccccc2NC(c2cccnc2)N1c1ccccc1F (stereo unspecified) | ?
O=C(Cc1cccs1)Nc1cccc(-c2nc3ccccc3o2)c1 | -17%
CCN1CCS/C1=C/C=C/C1=[N+](CC)CCS1 | -19%
COc1ccc2cc(C(c3nnnn3CCc3ccccc3)N3CCCC(C)C3)c(=O)[nH]c2c1 (stereo unspecified) | -9%
COc1ccccc1NC(=O)NC1(C(=O)N2CCC(O)CC2)CCCCC1 | -12%
COc1cccc(CS(=O)(=O)c2nnnn2-c2ccc(F)cc2Br)c1 | -10%
CC(C)CCNC(=O)C(Cc1ccccc1)NS(=O)(=O)c1ccc2c(c1)c(=O)n(C)c(=O)n2C (stereo unspecified) | -10%
Cc1ccccc1NC(=O)c1cccc2nccnc12 | -6%
Cc1cccc(C)c1NC(=S)N1CCC(N(C)CC2CCCO2)CC1 (stereo unspecified) | 2%
CCOc1ccc(C(c2c(NC(=O)c3ccccc3)sc(C)c2C)N2CCN(C)CC2)cc1 (stereo unspecified) | ?

Some of the entries above in a different format:
| SMILES | HPGD block |
| --- | --- |
| COc1ccc(CNC(=O)c2cnc3cc(C)ccn3c2=O)cc1 | ? |
| O=C1c2ccccc2NC(c2cccnc2)N1c1ccccc1F (stereo unspecified) | ? |

Next records follow:
SMILES | HPGD block
Cc1cc(O)c(NC(=S)NC(=O)c2ccc(-c3ccc(Cl)cc3)o2)cc1C | -14%
COc1cccc(OC)c1C(=O)Nc1nnc(C(C)C)s1 | -10%
O=C(CCCn1c(=S)[nH]c2cc3c(cc2c1=O)OCO3)N1CCN(c2ccccn2)CC1 | -19%
COC(=O)c1cccc(S(=O)(=O)N2CCCCC2)c1 | 0%
COC(=O)CCC(=O)Nc1ccc(OC)cc1 | -7%
COc1cc2c(cc1Cl)/C(=C\CCN(C)C)c1ccccc1S2 | -6%
O=C(NC1CC1)c1ccc(-c2nc3ccccc3s2)s1 | ?
[2H]c1c([2H])c([2H])c(C(=O)c2sc(N3CCCCCC3)nc2-c2ccccc2)c([2H])c1[2H] | -24%
CSc1ccc(-c2c(C#N)c(N)nc3c2c(C)nn3-c2ccccc2)cc1 | ?
COC(=O)c1ccc(CNC(=O)/C=C/c2cc([N+](=O)[O-])ccc2OC(F)F)cc1 | -10%
CCOC(=O)C(C(=O)Nc1ccccc1)C1CCCCC1 (stereo unspecified) | -4%
CC(=O)c1cccc(-n2c(CCC(=O)O)ccc2-c2cccs2)c1 | -9%

Ordered by value in HPGD block (descending): some entries from above
compound	HPGD block
COc1cc2c(cc1Cl)/C(=C\CCN(C)C)c1ccccc1S2	-6%
CC(=O)c1cccc(-n2c(CCC(=O)O)ccc2-c2cccs2)c1	-9%
COC(=O)c1ccc(CNC(=O)/C=C/c2cc([N+](=O)[O-])ccc2OC(F)F)cc1	-10%
[2H]c1c([2H])c([2H])c(C(=O)c2sc(N3CCCCCC3)nc2-c2ccccc2)c([2H])c1[2H]	-24%

New compounds follow
SMILES | HPGD block
CCCNC(=O)CSc1nnc(C)s1 | -24%
CC(=O)Oc1ccccc1C1OCCN1C(C)=O (stereo unspecified) | 1%
COc1ccc(/C=N/Nc2ncc(C(F)(F)F)cc2Cl)c(OC)c1OC | -17%
Cc1ccc(SCc2nc(N)nc(Nc3ccccc3C)n2)c(C)c1 | -21%
COc1cc2[nH]c(=O)n(C3CCCCC3)c(=O)c2cc1OC | -2%
Cn1c(=O)c2c(nc(CN3CCOCC3)n2CCCc2ccccc2)n(C)c1=O | -4%
O=C(CC1(O)C(=O)c2ccccc2C1=O)c1ccccc1 | -13%
O=C1C2C3C=CC(C3)C2C(=O)N1Cc1cccnc1 (stereo unspecified) | -2%
Cc1nn2c3c(cnc2c1-c1ccccc1)C(=O)CC(c1ccccc1)C3 (stereo unspecified) | -16%
CC1=C/C(=N\OS(=O)(=O)c2ccccc2)C=CC1=O | -22%
CCCn1c(=O)c2ccccc2n2c(SCc3c(C(=O)OCC)oc4ccccc34)nnc12 | -17%
CC1(C)Cc2c(sc3nc(SCC(=O)NCc4ccccc4)n(-c4ccccc4)c(=O)c23)CS1 | -5%
O=c1[nH]cc(F)c(=O)[nH]1 | -4%&-15%&-11%&-6%&-9%
C=CCN1C(=O)C(CC(=O)Nc2ccccc2)SC1=Nc1c(C)n(C)n(-c2ccccc2)c1=O (stereo unspecified) | -13%
OCCOCCNc1ncnc2c1cnn2-c1ccccc1 | 0%
O=C(CSc1nnc(CNc2ccc(F)cc2)o1)N1c2ccccc2Sc2ccccc21 | -6%
CCOC(=O)/C(C#N)=C\N(C)C | -5%
COc1ccc(CC(NC(C)=O)C(=O)NC2CCN(C(=O)NCc3ccccc3)CC2)cc1 (stereo unspecified) | -9%
COc1ccc2nc(NCc3ccccc3)[nH]c2c1 | -3%
CC(C)(C)SCCNS(=O)(=O)c1ccccc1 | -11%
CSc1nc(Oc2ccccc2)c2sccc2n1 | -5%
CCC(=O)Nc1nnc(CCc2ccccc2)s1 | -26%
O=C(O)c1[nH]c(=O)[nH]c(=O)c1CN1CCCCC1 | -10%
COc1ccc(-c2c3c(=O)n(C)c(=O)n(C)c3cn2-c2cccc(OC)c2)cc1 | -18%
COc1ccc(C(=O)N2CCC3(CCCN(Cc4cc(C(F)(F)F)cc(C(F)(F)F)c4)C3)CC2)cc1 | -4%
Cc1ccc(-c2cc(C(F)(F)F)n3nc(C(=O)Nc4c(C)n(C)n(-c5ccccc5)c4=O)cc3n2)cc1 | -10%
Cc1ccc(CNC(=O)C2C3C=CC(C3)C2C(=O)O)cc1 (stereo unspecified) | -8%
COc1cccc(C(=O)NCc2cn3ccsc3n2)c1 | -12%
Cc1cccc2c1Oc1ccccc1[C@@H]2NC(=O)c1ccc([N+](=O)[O-])cc1 | -4%
CN1c2ccccc2C(C)(C)C12CC(c1ccc(S(=O)(=O)N3CCCCC3)cc1)=NO2 (stereo unspecified) | -8%
N#CC1=C(N)OC2=C(CCc3ccccc32)C1c1ccccc1Cl (stereo unspecified) | -22%
Cc1nn(CC#N)c(=O)n1-c1ccccc1F | 5%
Cc1nnc(SCC(=O)N2c3ccccc3C(C)(c3ccccc3)CC2(C)C)s1 (stereo unspecified) | -18%
CC(C)Oc1ccc2c(=O)c(-c3ccccc3)coc2c1 | -16%&-29%
CCN(C(=O)c1cccc(Br)c1)c1ccccc1 | -3%
CCc1ccc(O)c(N=Cc2cccc(C)c2O)c1 | -29%
CCOC(=O)C1(CC/C(C)=N\NC(N)=O)CC(C)OC1=O (stereo unspecified) | -1%
c1ccc(OCCCc2nc(-c3ccccn3)no2)cc1 | -9%
CCOc1ccc(OCC)c(-c2c(=O)n(OCc3ccc(C(C)(C)C)cc3)c3ccccc3[n+]2[O-])c1 | -15%
O=C(Nc1ccc2oc(-c3ccc4ccccc4c3)nc2c1)c1ccc2c(c1)OCCO2 | ?
CCC1(C)Cc2c(C#N)c(N)n(-c3ccccc3)c(=O)c2CO1 (stereo unspecified) | -10%
COCCN1C(=O)C(=O)/C(=C(/O)c2ccc3c(c2)OCCO3)C1c1ccc(C(=O)OC)cc1 (stereo unspecified) | -23%
N#CCCn1c(=O)c(-c2ccc(Cl)cc2)nc2cnc(Oc3cccc(Cl)c3)nc21 | -7%
Cc1ccc(NN2C(=O)C=CC2=O)cc1 | -5%
COC(=O)c1cccc(Nc2cc(C)nc(-c3ccccc3O)n2)c1 | ?
O=C(c1cccc(F)c1)N1CCC2(CCCN(Cc3nccs3)C2)CC1 | -5%
Cc1ccc(-c2cc(-c3ccc(F)cc3)nc(N)c2C#N)o1 | ?
CCCCOC(=O)NC1(C)CCS(=O)(=O)C1 (stereo unspecified) | -8%

Quoted at random: 3 records from the list
SMILES | HPGD block
N[C@@H](CSC(=O)c1ccccc1)C(=O)O | -3%
COc1ccc(CC(NC(C)=O)C(=O)NC2CCN(C(=O)NCc3ccccc3)CC2)cc1 (stereo unspecified) | -9%
N#CC1=C(N)OC2=C(CCc3ccccc32)C1c1ccccc1Cl (stereo unspecified) | -22%

More structures follow:
SMILES | HPGD block
Nc1ccc(C(=O)Nc2ccco2)cc1 | -9%
CC(C1CC1)N(Cc1ccccc1)C(=S)Nc1cccc(C(F)(F)F)c1 (stereo unspecified) | -23%
COc1ccc(Oc2ccccc2/C=N/O)cc1 | ?
CCCn1c(CNC(=O)Cc2ccccc2)nc2ccccc21 | -5%
CCCC(=O)Nc1ccc(C(=O)NNC(=O)COc2ccc(Br)c(C)c2)cc1 | -5%
Cc1ccccc1Cc1c(C)nc2nc(SCC(=O)NCc3ccco3)nn2c1C | ?
COc1ccc(-c2nnc(Nc3ccc(CC(N)=O)cc3)c3ccccc23)cc1 | -16%
COC(=O)COc1ccc(S(=O)(=O)N2CCN(c3ccc(F)cc3)CC2)cc1 | -10%
CCCCC(=O)Nc1cccc(NC(=S)NC(=O)C(C)C)c1 | -5%
O=C(CSc1ncnc2nc[nH]c12)N1CCN(c2ccc(Cl)cc2)CC1 | -11%
O=C(COc1ccc(Cl)cc1)N1CCN(c2cccc(C(F)(F)F)c2)CC1 | -12%
CC1=C(C(=O)OC(C)C)C(c2ccc(F)cc2)NC(=O)N1 (stereo unspecified) | -3%
CCOC(=O)/C(C#N)=C\c1c(OCC)n(CC)c2ccccc12 | -16%
COc1ccc(CN=CC2=C(O)CNC2=O)cc1OC | -7%
CC(=O)N1CCc2cc(C(=O)CN3CCC(C)CC3)ccc21 | ?
Cc1ccc(CCNC(=O)C2CCN(C(=O)N(C)C)CC2)cc1 | -3%

A portion of the library; rates above refer to the full screens.
